AID504770 = growth inhibition of E. coli YBA685, primary screen, V. cholerae RctB inhibitors | E. coli YBA685 rctB-dependent plasmid, OD600 growth, 3 h; stronger effect = lower value | z-score (concentration not given with the values) | actives 0.27% (n = 130,000);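 active means z-score under -2 on both plates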;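 further: wells of about 30 µL received 100 nL stock; score is relative to mean and SD of the test wells; the first replicate is given; strong numbers were not always called active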
Ba CapD inh = Bacillus anthracis CapD inhibitors, primary screen, biochemical, fluorescence intensity. CapD gamma-glutamyltranspeptidase (Bacillus anthracis Ames Ancestor). purified CapD enzyme, fluorescence intensity read-out; stronger effect = lower value; some hits fall short of the stated cut. z-score (concentration not given with the values). actives 0.23% (n = 140,000);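 active means z-score under -4 in either of two replicates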;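 further: stock transfer was 100 nL into about 40 µL; score is relative to mean and spread of the plate; one replicate is shown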
The depositor's hits bear a star; . = no result given.

Results follow in this order: AID504770, Ba CapD inh
- COc1ccc(C2CC(=O)C3=C(C2)Nc2ccccc2NC3c2ccc(C(F)(F)F)cc2)cc1 (stereo unspecified)
→ ., -0.51
- O=C(CC1SC(=O)NC1=O)Nc1nccs1 (stereo unspecified)
→ 0.15, -0.085
- CCSc1nsc(NC(=O)Nc2cccc(OC)c2)n1
→ 0.55, .
- COc1ccc(C2NCCO2)cc1OC (stereo unspecified)
→ -0.65, .
- Cc1ccc(CNC(=O)c2ccc(OCc3cccc(Cl)n3)cc2)cc1
→ ., -0.57
- O=[N+]([O-])c1ccc(CSc2nc(NCC3CCCO3)c3ccccc3n2)cc1 (stereo unspecified)
→ ., -0.24
- CCc1ccc(NC(=O)CSc2nccn2-c2ccccc2)cc1
→ -1, -0.77
- COC(=O)COc1ccc2c(=O)c(-c3ccccc3OC)coc2c1
→ -0.15, -0.31
- Clc1cccc(CN2CCN(Cc3cccc(Cl)n3)CC2)n1
→ ., -0.1
- O=C(CN1C(=O)CCC1=O)NC(c1ccccc1)c1ccccc1
→ -0.75, .
- COc1cc(/C=N/n2cnc3c(sc(=S)n3C)c2=O)ccc1O
→ 0.55, 0.35
- O=C(CN1C(=O)c2ccccc2C1=O)OCCOCCN=C1NS(=O)(=O)c2ccccc21
→ ., -0.35
- Cn1nnnc1SCc1cc(=O)[nH]c2ccccc12
→ -2, -0.72
- COc1cc(CNc2ccc3c(c2)OCCO3)ccc1OCC(N)=O
→ -1.1, 1.4
- COc1ccc(/C=C2\CC/C(=C\c3ccc(C)cc3)C2=O)cc1
→ 0.05, 0.2
- O=c1c2ccccc2c(-c2ccc(F)cc2)nn1-c1ccc(C(F)(F)F)cc1
→ ., -0.27
- CC(C)(C#N)Nn1cnnc1
→ 1.9, .
- O=C(/C=C/c1c(Cl)nc2sccn12)NCC1CCCO1 (stereo unspecified)
→ -0.05, .
- CCN(CC)CCCNc1nc(-c2ccc(Cl)cc2)nc2ccccc12
→ ., 1.6
- COC(=O)c1cc2c(ccn2-c2ccc(F)cc2)n1C(C)C
→ 0.05, .
- C/C=C\C(=O)NCc1ccc2[nH]c3c(c2c1)CCCC3
→ -0.35, 0.62
- c1ccc(-c2nnc(-c3ccccc3)c3nonc23)cc1
→ 0.55, 0.42
- CC1CN(CC(=O)c2cccs2)CC(C)O1 (stereo unspecified)
→ 0.15, .
- CC1(C)CC(O)CC(C)(C)N1CC(O)COC1CCCCC1 (stereo unspecified)
→ -0.2, .
- CCN1C(=O)/C(=C\c2ccsc2)SC1=S
→ -0.15, -0.07
- CCOC(=O)c1nnn(-c2nonc2N)c1CSc1nc2ccc(OC)cc2[nH]1
→ ., -0.075
- CC(=O)N1CCC(N(CCN2CCOCC2)C(=O)Nc2ccccc2)CC1
→ -1, 0.34
- COc1cc(C2C(C#N)=C(N)Oc3n[nH]c(-c4ccc(C)cc4)c32)cc(OC)c1OC(=O)c1ccco1 (stereo unspecified)
→ ., 0.16
- O=C1/C(=C/c2ccc(O)cc2)CS(=O)(=O)c2ccccc21
→ -0.8, .
- CCCN(CCC)C(=O)Cn1c(=O)n(CCCCC(=O)NC2CCCC2)c(=O)c2ccccc21
→ -0.4, 0.035
- O=C(NCc1ccncc1)c1cccc(Oc2ccccc2)c1
→ -0.15, 1.3
- C(=N\c1ncn[nH]1)/c1cccs1
→ -0.35, .
- Cc1cccc(CCOC(=O)NNC(=O)c2snnc2-c2ccccc2)c1
→ ., 0.62
- OCCNc1nc2ccccc2n1Cc1ccccc1Cl
→ -0.9, .
- CCC(C(=O)OC(C)C)n1cnc2sc3c(c2c1=O)CCC(C)C3 (stereo unspecified)
→ -0.35, .
- Cc1cc(C)c2c(c1)c(-c1ccccc1)c(-c1ccccc1)n2CC(O)Cn1nc(C)c(Br)c1C (stereo unspecified)
→ ., 23
- O=C(NCCO)c1c2c(nc3ccccc13)CCCC2
→ -0.45, -0.41
- Cc1ccc(C(=O)N/C(=C\c2ccc3c(c2)OCO3)C(=O)Nc2ccccc2Br)cc1C
→ ., 1.1
- O=C(CSC(=O)c1c(Cl)cccc1Cl)Nc1cc(C(F)(F)F)cc(C(F)(F)F)c1
→ ., -1.1
- Cc1c(S(=O)(=O)c2ccc(Cl)cc2)csc1C(=O)N(Cc1ccccc1)Cc1cccnc1
→ -0.4, -0.4
- Cc1[nH]c2ccc(C(=O)Oc3ccc4c(c3)OCO4)cc2c1C
→ -0.1, .
- c1ccc2c(CCNCCSSCCNCCc3c[nH]c4ccccc34)c[nH]c2c1
→ ., -0.04
- CC(=O)C1C(=O)NC23CCCCC2C1c1ccccc1O3 (stereo unspecified)
→ ., 0.24
- CCOC(=O)C(O)(c1ccc(NC(=O)NC)cc1)C(F)(F)F (stereo unspecified)
→ -1.4, -0.78
- CCOC(=O)c1c(-c2ccccc2)csc1/N=C/C1C(=O)CCCC1=O
→ -3.1, 11
- CC12CN3CC(C)(CN(C1)C3c1ccccc1O)C2=O (stereo unspecified)
→ ., -0.56
- COc1cc(C2NC(=O)NC(C)=C2C(=O)OCc2ccc3c(c2)OCO3)ccc1O (stereo unspecified)
→ ., -0.24
- CC(=O)NC(=O)NCc1ccccc1
→ 1.5, 0.49
- O=S(=O)(Nc1ccc(N2CCCCC2)cc1)c1ccc(-c2ccccn2)s1
→ -0.4, 0.14
- CCOC(=O)c1c(NC(=O)c2sc3ccccc3c2Cl)sc2c1CCC(C)C2 (stereo unspecified)
→ ., -0.15

Further results:
Results follow in this order: AID504770, Ba CapD inh
- Cc1ccc(-c2ccc(NC(=O)C3C4C=CC(C4)C3C(=O)O)cc2)o1 (stereo unspecified)
→ 0.05, .
- CS(=O)(=O)c1ccc2c(c1)CCN2C(=O)c1ccc(C(F)(F)F)cc1
→ ., -0.015
- CSc1ncc2c(=O)n(CC3CCCO3)ccc2n1 (stereo unspecified)
→ -0.5, 1.4
- CC(C(=O)N1CCc2ccccc21)N1CCN(S(=O)(=O)c2ccc(Cl)cc2)CC1 (stereo unspecified)
→ 0.1, .
- O=C(O)C1CCc2ccccc2O1 (stereo unspecified)
→ 1.6, -0.57
- COc1ccccc1N1CCN(CC(C)N(C(=O)C2CCCCC2)c2ccccn2)CC1 (stereo unspecified)
→ ., 0.48
- O=C(/C=C/c1ccco1)Nc1ccc(Nc2ccccc2)cc1
→ -1.2, -2.6
- O=C(Nc1ccccc1)N1CCc2ccccc21
→ -0.6, .
- CC(C)(C)c1cc(-c2cccs2)c(C#N)c(SCC(=O)Oc2ccccc2)n1
→ 0, 38
- COc1cc(OC)nc(CN(C)Cc2ccccc2Cl)n1
→ ., -0.36

Looked up one by one from the list above:
Results follow in this order: AID504770, Ba CapD inh
- O=C(/C=C/c1ccco1)Nc1ccc(Nc2ccccc2)cc1
→ -1.2, -2.6
- CC(C)(C)c1cc(-c2cccs2)c(C#N)c(SCC(=O)Oc2ccccc2)n1
→ 0, 38
- CSc1ncc2c(=O)n(CC3CCCO3)ccc2n1 (stereo unspecified)
→ -0.5, 1.4
- Cc1ccc(-c2ccc(NC(=O)C3C4C=CC(C4)C3C(=O)O)cc2)o1 (stereo unspecified)
→ 0.05, .

The results go on:
Results follow in this order: AID504770, Ba CapD inh
- CC1CC(C)(C)NC(=S)N1c1cccc(O)c1 (stereo unspecified)
→ ., 27
- COCCn1c(C)cc(C(=O)COC(=O)c2ccc(NC(=O)CC#N)cc2)c1C
→ 0.15, .
- O=C1CN(Cc2nc3ccc(Cl)cc3n2CCO)c2ccccc2N1
→ -0.95, .
- CC(C)CCNC(=O)c1ccc(CS(=O)(=O)c2cccc(C(F)(F)F)c2)o1
→ 2.1, -0.49
- O=C(CNC(=O)c1ccc(-c2ccccc2)cc1)OC1CCOC1=O (stereo unspecified)
→ -0.15, .
- Cc1cc(C(=O)NC2CCC(O)CC2)c(C)o1 (stereo unspecified)
→ -0.95, .
- CSc1nc(C=Nc2ccc(C)cc2)ccc1C#N
→ -0.2, 1.1
- Cn1nc(CC(=O)Nc2nncs2)c2ccccc2c1=O
→ -0.5, .
- CCOc1cc(/C=C2\SC(N)=NC2=O)ccc1OCc1ccc(Br)cc1
→ ., -0.54
- COc1ccc(C2C3=C(CCCC3=O)Nc3n[nH]c(-c4ccccc4)c32)cc1 (stereo unspecified)
→ -0.2, 7.5

Part of the list above in order of count of non-hydrogen atoms, low to high.
Results follow in this order: AID504770, Ba CapD inh
- CC(C)CCNC(=O)c1ccc(CS(=O)(=O)c2cccc(C(F)(F)F)c2)o1
→ 2.1, -0.49
- COc1ccc(C2C3=C(CCCC3=O)Nc3n[nH]c(-c4ccccc4)c32)cc1 (stereo unspecified)
→ -0.2, 7.5
- COCCn1c(C)cc(C(=O)COC(=O)c2ccc(NC(=O)CC#N)cc2)c1C
→ 0.15, .

The list continues.
Results follow in this order: AID504770, Ba CapD inh
- O=S(=O)(CCN1CCC(n2cccc2)CC1)c1ccc(F)cc1
→ 0.45, -0.095
- CC(C)(C)P(=NC(=S)N1CCCCCC1)(N1CCOCC1)N1CCOCC1
→ 0.2, .
- C=CCn1c(=O)c(C(=O)Nc2ccc(C)cc2Br)c(O)c2ccccc21
→ ., 0.97
- O=C(Nc1ccc(F)c(F)c1)c1cc(S(=O)(=O)N2CCN(c3ccccc3Cl)CC2)ccc1F
→ ., 0.075
- CCOC(=O)c1ccc(N2C(=O)C3CCC(C)CC3C2=O)cc1 (stereo unspecified)
→ ., 0.56
- CC1(C)Cc2cccc(C(=O)Nc3cccnc3)c2O1
→ -0.25, 1.3
- Clc1cccc(CSc2nnc3ccccn23)c1
→ 1.6, 0.49
- CCCN(CCC)C(=O)Cn1ncc2c(=O)oc3ccccc3c21
→ -0.35, 0.44
- NS(=O)(=O)c1ccc(CCNC(=O)c2ccncc2)cc1
→ 1.2, .
- CC(C)(C)NC(=O)c1cccc(NC(=O)Cc2cccs2)c1
→ -0.45, 0.48
- Cc1n[nH]c(C)c1S(=O)(=O)N1CCC2(CC1)OCCO2
→ 1.7, 0.2
- CC(C)(C)c1ccc(C(=O)NCCC(=O)Nc2nn3cnnc3s2)cc1
→ 0.45, .
- CCSc1nnc(C2CCN(CC(=O)Nc3ccc(N4CCCCCC4)cc3)CC2)n1C
→ -0.7, .
- CCOC(=O)C1=C(O)/C(=C/c2ccccc2)SC1=Nc1ccc(F)cc1
→ ., -0.94
- O=P(O)(CN1CCCCCC1)C1Cc2ccccc2C1
→ 0.6, -0.21
- O=C(CSc1nnnn1-c1ccccc1)N(C1CCCCC1)C1CCCCC1
→ -0.6, 0.12
- Cc1cc(-c2ccccc2)nc(N(C)NC(=O)C2CC2)c1S(C)(=O)=O
→ ., -0.03
- OC1(CCC2(O)CCCC2)CCCC1
→ 1.5, 0.02
- CCn1c(C(=O)N2CCCC(C(=O)NCCCc3ccccc3)C2)cc2sccc21 (stereo unspecified)
→ -0.45, 0.32
- O=C(CCc1ccsc1)Nc1nc2ccccc2[nH]1
→ 0.3, .
- O=C(CCNc1n[nH]c(=O)[nH]c1=O)NCc1ccco1
→ -0.65, -0.08
- NC(=O)NCCc1ccccc1
→ -0.15, 1.3
- CCOC(=O)c1c(-c2ccccc2)oc2ccc(OCc3ccc(Br)cc3)cc12
→ ., 2.3
- FC(F)(F)c1ccncc1-c1nc(-c2cc(Cl)cc(Cl)c2)no1
→ -0.9, 0.015
- NS(=O)(=O)c1ccccc1C(=O)N1CCN(C(=O)c2ccccc2S(N)(=O)=O)CC1
→ -1.1, -0.19
- Cc1cccc2c1N(C(=O)C1CC1)C(C)(C)c1ssc(=S)c1-2
→ ., -0.77
- CC(C)(C)C(=O)COC(=O)c1ccc(S(=O)(=O)N2CCOCC2)cc1
→ 0.2, .
- CCOC(=O)c1sc(NC(=O)CSc2nc(-c3ccco3)c(C#N)c(=O)[nH]2)nc1C
→ ., 0.54
- O=C(CN1CCOCC1)N(C1CCCCC1)C1CCS(=O)(=O)C1 (stereo unspecified)
→ 1.1, .
- CCOC(=O)c1ccccc1NC(=O)CSc1nc2n[nH]c(C)c2c(=N)n1-c1ccc(Br)cc1
→ ., 1.5
- CN1C(=O)NC(c2ccc(Cl)cc2)C2=C1CC(C)(C)CC2=O (stereo unspecified)
→ -0.2, -0.52
- CCOc1ccc(-c2n[nH]c(=S)n2CC)cc1
→ -0.25, 0.36
- COc1ccc(NC(=O)c2sc3ncn(CC(=O)Nc4cccc(C(F)(F)F)c4)c(=O)c3c2C)c(OC)c1
→ ., -0.005
- O=C(NCC(=O)N1CCCCCC1)c1cccs1
→ 1.6, 0.37
- Cc1ccccc1NC(=O)c1c(C)nc(SCC(N)=O)c(C#N)c1-c1ccc(Cl)cc1
→ ., -1.7
- NC(=O)c1cc(S(=O)(=O)NC2CCCc3ccccc32)cs1 (stereo unspecified)
→ 0.95, -0.42
- O=C(Cc1ccccc1)NN(c1ccccc1)c1ccccc1
→ 1.1, 0.15
- Cc1cc(C(=O)ONC(=O)c2ccco2)nn1-c1cc(Cl)ccc1Cl
→ -0.4, 0.46
- NC(=O)c1cccc(CNC(=O)c2ccccc2C(N)=O)c1
→ -0.85, .
- CCC(=O)OC1(c2ccccc2)C(C)CN(C)CC1C (stereo unspecified)
→ -0.2, -0.025
- O=c1cc(-c2ccccc2)[nH]n1-c1nc2ccccc2[nH]1
→ -0.55, 5.3
- O=C(NCCCN1CCOCC1)c1cc2sc3ccccc3c2s1
→ 0.35, .
- Cn1nc(CC(=O)Nc2nccs2)c2ccccc2c1=O
→ ., -0.97
- CC1(C)SC(=S)N(/N=C/C=C/c2ccc([N+](=O)[O-])o2)C1N(O)C(=O)Nc1ccccc1 (stereo unspecified)
→ ., -0.34
- CCN(CC)c1ccc(C(=S)N2CCN(CCO)CC2)cc1
→ -0.55, -2.3
- CCN1C(=O)c2cccc3c(NC(=O)c4cccc(OC)c4)ccc1c23
→ -1, .
- Cc1ccc(P2(=S)N=C3c4ccccc4CN3c3cc(N(C)C)ccc32)o1 (stereo unspecified)
→ 0.6, .
- O=[N+]([O-])c1cccnc1N1CCN(CCO)CC1
→ ., -0.59
- Nn1c(SCc2cccc(Br)c2)nnc1-c1ccccc1
→ -0.6, -0.31
- O=C(CCc1nc2ccccc2c(=O)[nH]1)Nc1ccc(F)cc1
→ -0.8, .

High-throughput results as filed in PubChem BioAssay.
